rRNA inh HTS = inhibits bacterial ribosomal RNA function over humanized ribosomes | AID 720706 | GFP signal change (wild-type ribosome), % (no concentration beside the values) | 1.6% of 350,000 active | E. coli WT GFP vs humanized-ribosome RFP mutants, fluorescence, 24 h; stronger effect = lower value; DMSO median 0, no signal -100;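 active = significant combined selectivity score with lowered wild-type GFP, culture density cut under 30%, mutant RFP and density less affected; inactive = any of these conditions unmet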; note: one replicate is shown; some compounds called inactive have numbers as strong as hits
FGF22 binding = FGF22 (human) thermal shift binding | recombinant FGF22 thermal shift, SYPRO orange fluorescence; percent of sucrose octasulfate shift, DMSO zero | calls only at 9.99 µM | Q9HCT0 | 1.5% of 340,000 active;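 active = melting point raised past a set limit in the mean and every replicate; three in four hits are not shown here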
Target sequence (Q9HCT0 whole entry, looked up): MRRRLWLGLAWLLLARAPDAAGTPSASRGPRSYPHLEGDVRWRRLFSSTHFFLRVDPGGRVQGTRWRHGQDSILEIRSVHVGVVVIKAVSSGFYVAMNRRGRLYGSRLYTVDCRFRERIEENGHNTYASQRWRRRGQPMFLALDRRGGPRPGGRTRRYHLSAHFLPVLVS
rRNA inh HTS OD600 = also measured in rRNA inh HTS; calls as there; OD600 change, %; measured here: OD600 growth;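 optical density of the mix in the first replicate; 0 = DMSO median and -100 = no signal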
rRNA inh HTS RFP = second read-out of rRNA inh HTS, no call of its own (marks repeat the call); RFP signal change, %; measured here: RFP humanized mutant strains;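 first replicate; 0 = DMSO median and -100 = no signal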
Starred values were filed as active, the others as inactive; i = inactive. These rows are one share of the data; rates above refer to the full screens.

molecule	rRNA inh HTS	rRNA inh HTS OD600	rRNA inh HTS RFP	FGF22 binding
C[C@H]1CCCCO[C@H](CN(C)C)[C@@H](C)CN([C@@H](C)CO)C(=O)c2cc(NC(=O)Nc3ccc(F)cc3)ccc2O1	-1.1	1.8	-1.9	i
O=C(C[C@H]1C[C@@H]2c3cc(NC(=O)C4CCC4)ccc3O[C@@H]2[C@@H](CO)O1)NCC1CC1	1.6	10.9	-0.6	i
COc1ccc(-c2ccc([C@@H]3[C@H](CO)N4CCCCN(S(=O)(=O)c5cccs5)C[C@@H]34)cc2)cc1	-53.2	-67.2	-2.6	i
COc1ccc(S(=O)(=O)Nc2ccc3c(c2)C(=O)N([C@H](C)CO)C[C@@H](C)[C@H](CN(C)CC2CCCCC2)OCCCC[C@@H](C)O3)cc1	3.9	-2.1	6.5	i
C[C@H](CO)N1C[C@H](C)[C@H](CN(C)Cc2ccc(-c3ccccc3)cc2)Oc2ccc(NC(=O)Nc3ccc(C(F)(F)F)cc3)cc2C1=O	7.2	14.3	1.3	i
COc1ccccc1S(=O)(=O)N[C@@H]1CC[C@@H](CCNC(=O)C2CC2)O[C@H]1CO	2.5	3.6	1.6	i
O=C(C[C@@H]1C[C@H]2c3cc(NC(=O)Nc4ccccc4F)ccc3O[C@H]2[C@H](CO)O1)NCc1ccccn1	-6.2	-10.7	3.7	i
O=S(=O)(NCC[C@H]1CC[C@@H](NS(=O)(=O)c2cccc(F)c2)[C@@H](CO)O1)c1cccc(F)c1	-4.1	-7.9	-2.0	i
CN(C)C(=O)C[C@@H]1CC[C@@H]2[C@@H](COc3ccc(NC(=O)c4ccc(F)c(F)c4)cc3C(=O)N2C)O1	6.0	6.6	2.6	i
CO[C@H](CN(C)S(=O)(=O)c1ccc(Cl)cc1)[C@@H](C)CN([C@H](C)CO)S(=O)(=O)c1cccc(Cl)c1	-4.6	-15.6	4.9	i
COc1ccccc1NC(=O)N(C)C[C@@H]1OCc2ccccc2-c2c(n(C)c3ccccc23)C(=O)N([C@H](C)CO)C[C@H]1C	0.8	1.3	4.2	i
CN(c1ccc(NC(=O)Cc2c[nH]c3ccccc23)cc1)c1ccccn1	-5.0	-23.2	6.4	i
COc1ccc(S(=O)(=O)N(C)C[C@@H]2Oc3ncc(-c4ccncc4)cc3C(=O)N([C@@H](C)CO)C[C@H]2C)cc1	-7.7	-0.5	1.3	i
Cc1ccc(S(=O)(=O)N(C)C[C@H]2Oc3c(NS(=O)(=O)c4cccs4)cccc3C(=O)N([C@@H](C)CO)C[C@H]2C)cc1	3.0	4.7	10.1	i
O=C(C[C@H]1CC[C@@H](NC(=O)Nc2ccccc2F)[C@H](CO)O1)NCc1ccc(Cl)cc1	2.4	0.4	2.0	i
Cc1noc(C)c1S(=O)(=O)Nc1ccc2c(c1)CC(=O)N([C@H](C)CO)C[C@@H](C)[C@@H](CN(C)CC1CC1)O2	2.4	-0.3	-0.4	i
C[C@H](CO)N1C[C@H](C)[C@H](CN(C)Cc2ccncc2)Oc2ccc(NS(=O)(=O)c3ccc(Cl)cc3)cc2C1=O	-0.7	-5.1	4.0	i
O=C(C[C@H]1CC[C@H](NC(=O)Nc2cc(F)ccc2F)[C@H](CO)O1)NCCCN1CCOCC1	-1.5	-3.7	3.3	i
COc1ccc(NC(=O)Nc2cccc3c2O[C@@H](CN(C)Cc2ccc(C(=O)Nc4ccccc4N)cc2)[C@H](C)CN([C@H](C)CO)C3=O)cc1	-7.8	-16.4	-0.3	i
N#C[C@@H]1[C@@H](c2ccc(C#CC3CC3)cc2)[C@H](CO)N1C(=O)Cc1ccccn1	0.2	-0.8	-0.4	i
Cc1ccc(S(=O)(=O)N2C[C@H](O)COC[C@@H]3O[C@H](CC(=O)NCc4ccc5c(c4)OCO5)CC[C@H]32)cc1	1.8	11.9	0.0	i
CC(=O)N1[C@@H]2Cn3c(ccc(-c4cncnc4)c3=O)[C@H]1[C@@H](C(=O)NC1Cc3ccccc3C1)[C@@H]2CO	0.5	0.8	3.0	i
CCC(=O)Nc1ccc2c(c1)OC[C@H](C)N(C(=O)CC1CC1)C[C@H](C)[C@@H](OC)CN(C)C2=O	-3.4	0.7	-0.4	i
COc1ccc(S(=O)(=O)Nc2ccc3c(c2)C(=O)N([C@@H](C)CO)C[C@H](C)[C@@H](CN(C)C)OCCCC[C@H](C)O3)cc1	4.3	1.8	-0.2	i
C[C@@H]1CN([C@@H](C)CO)C(=O)c2cc(NC(=O)CCN3CCOCC3)ccc2O[C@@H]1CN(C)Cc1ccc2c(c1)OCO2	0.6	4.3	-3.9	i
COc1ccc(S(=O)(=O)Nc2ccc3c(c2)C(=O)N([C@@H](C)CO)C[C@H](C)[C@@H](CN(C)C(=O)c2ccncc2)OCCCC[C@H](C)O3)cc1	-4.5	0.0	-3.5	i
CNC[C@@H]1OCCCC[C@H](C)Oc2ccc(NS(=O)(=O)c3cn(C)cn3)cc2C(=O)N([C@H](C)CO)C[C@@H]1C	6.5	7.6	-4.6	i
CCCC(=O)Nc1ccc2c(c1)OC[C@H](C)N(CC1CCCC1)C[C@@H](C)[C@H](OC)CN(C)C2=O	-2.4	-4.5	-0.4	i
C[C@@H]1CN([C@@H](C)CO)C(=O)Cc2cc(NC(=O)C3CC3)ccc2O[C@H]1CN(C)Cc1ccc(Oc2ccccc2)cc1	-12.2	-42.1	22.8	i
COc1ccc(S(=O)(=O)N(C)C[C@@H]2Oc3c(NC(=O)c4cc(C)nn4C)cccc3C(=O)N([C@@H](C)CO)C[C@@H]2C)cc1	-5.1	8.9	1.7	i
C[C@@H]1CCCCO[C@H](CN(C)S(=O)(=O)c2cccs2)[C@@H](C)CN([C@H](C)CO)C(=O)c2cc(NC(=O)NC3CCCCC3)ccc2O1	-1.4	1.9	-0.2	i
CCCNC(=O)C[C@H]1CC[C@H]2[C@@H](COc3ccc(NC(=O)NC(C)C)cc3C(=O)N2C)O1	-2.2	-11.8	-0.9	i

Compound profiles, as listed above. Screens in order: rRNA inh HTS, rRNA inh HTS OD600, rRNA inh HTS RFP, FGF22 binding
CCCNC(=O)C[C@H]1CC[C@H]2[C@@H](COc3ccc(NC(=O)NC(C)C)cc3C(=O)N2C)O1 as listed: -2.2, -11.8, -0.9, i
CCCC(=O)Nc1ccc2c(c1)OC[C@H](C)N(CC1CCCC1)C[C@@H](C)[C@H](OC)CN(C)C2=O as listed: -2.4, -4.5, -0.4, i
COc1ccc(S(=O)(=O)N(C)C[C@@H]2Oc3c(NC(=O)c4cc(C)nn4C)cccc3C(=O)N([C@@H](C)CO)C[C@@H]2C)cc1 as listed: -5.1, 8.9, 1.7, i
COc1ccc(S(=O)(=O)Nc2ccc3c(c2)C(=O)N([C@@H](C)CO)C[C@H](C)[C@@H](CN(C)C(=O)c2ccncc2)OCCCC[C@H](C)O3)cc1 as listed: -4.5, 0.0, -3.5, i
C[C@@H]1CN([C@@H](C)CO)C(=O)Cc2cc(NC(=O)C3CC3)ccc2O[C@H]1CN(C)Cc1ccc(Oc2ccccc2)cc1 as listed: -12.2, -42.1, 22.8, i

Next part
molecule	rRNA inh HTS	rRNA inh HTS OD600	rRNA inh HTS RFP	FGF22 binding
O=C(c1cccc(F)c1)N1CC[C@H]2[C@H](CO)Nc3ccc(-c4ccccc4F)cc3[C@H]21	-44.5	-70.1	1.2	i
C[C@H](CO)N1C[C@H](C)[C@H](CN(C)Cc2cccc(F)c2)Oc2ncc(C3=CCCCC3)cc2C1=O	3.9	-1.6	6.3	i
CC(C)NC(=O)N(C)C[C@@H]1Oc2ccc(NC(=O)Nc3ccc(C(F)(F)F)cc3)cc2C(=O)N([C@H](C)CO)C[C@H]1C	2.5	5.0	-0.4	i
C[C@H](CO)N1C[C@H](C)[C@@H](CN(C)C(=O)Nc2ccc(F)cc2)Oc2ccc(NC(=O)CCC(F)(F)F)cc2CC1=O	0.3	-6.4	-1.0	i
N#C[C@H]1N[C@H](CO)[C@H]1c1ccc(C#CC2CCCCC2)cc1	-3.0	-16.1	3.2	i
O=C(c1ccccn1)N1C[C@@H]2[C@H](c3ccccc31)[C@@H](CO)N2C(=O)Nc1ccccc1F	4.0	12.6	3.0	i
CC(C)c1cccc(NC(=O)C[C@H]2CC[C@H]3[C@@H](COc4ccc(NC(=O)c5cnccn5)cc4C(=O)N3C)O2)c1	-0.4	-18.1	-2.3	i
CCCC(=O)Nc1ccc2c(c1)C(=O)N(C)C[C@@H](OC)[C@@H](C)CN(C(=O)c1cnccn1)[C@H](C)CO2	1.9	1.6	-1.2	i
COc1ccc(S(=O)(=O)Nc2cccc3c2O[C@@H](CN(C)Cc2ccncc2)[C@H](C)CN([C@H](C)CO)C3=O)cc1	3.9	-3.6	-1.3	i
COc1ccc2c3c([nH]c2c1)[C@H](CO)N(C(=O)NC(C)C)CC31CCN(C(=O)NC(C)C)CC1	2.0	17.5	-0.5	i
C[C@H](CO)N1C[C@H](C)[C@@H](CN(C)C(=O)NC2CCCC2)Oc2ncc(Br)cc2C1=O	8.7	24.8	-2.3	i
CCC(=O)N1CC2(CCN(C(=O)Nc3ccccc3F)CC2)c2c([nH]c3cc(OC)ccc23)[C@H]1CO	-0.6	-2.7	-3.3	i
C[C@H](CO)N1C[C@H](C)[C@@H](CN(C)C(=O)Cc2ccccc2)OCCCC[C@H](C)Oc2ccc(NS(=O)(=O)c3ccc(Cl)cc3)cc2C1=O	-6.2	-5.2	0.4	i
Cc1ccc(S(=O)(=O)N(C)C[C@H]2OCCCC[C@@H](C)Oc3ccc(NS(=O)(=O)c4cn(C)cn4)cc3C(=O)N([C@@H](C)CO)C[C@@H]2C)cc1	3.1	3.8	-0.5	i
C[C@@H]1CN([C@H](C)CO)C(=O)c2cccc(NC(=O)Nc3ccccc3)c2O[C@@H]1CN(C)S(=O)(=O)c1cn(C)cn1	0.6	2.3	0.2	i
COc1ccccc1C#Cc1ccc2c(c1)O[C@H](CN(C)Cc1cccnc1)[C@H](C)CN([C@@H](C)CO)S2(=O)=O	-2.4	-6.2	0.6	i
Cc1noc(C)c1NC(=O)N(C)C[C@@H]1Oc2ccc(NS(=O)(=O)c3ccc(Cl)cc3)cc2C(=O)N([C@H](C)CO)C[C@@H]1C	1.3	-3.4	-0.5	i
COc1ccc(S(=O)(=O)Nc2ccc3c(c2)C(=O)N([C@@H](C)CO)C[C@H](C)[C@@H](CN(C)C(=O)Nc2ccc4c(c2)OCO4)OCCCC[C@H](C)O3)cc1	-1.5	-0.7	-0.8	i
CC(C)CC#Cc1ccc([C@H]2[C@@H](CO)N3CCCCN(S(=O)(=O)c4ccc(F)cc4)C[C@H]23)cc1	-4.7	15.0	6.1	i
C[C@H](CO)N1C[C@H](C)[C@H](CN(C)Cc2ccc(Oc3ccccc3)cc2)Oc2ccc(NS(=O)(=O)c3ccc(F)cc3)cc2C1=O	-0.7	-17.7	5.0	i
C[C@@H]1CN([C@H](C)CO)C(=O)Cc2cc(NS(=O)(=O)c3cn(C)cn3)ccc2O[C@H]1CN(C)Cc1ccc(Oc2ccccc2)cc1	0.0	2.0	1.5	i
C[C@@H]1CCCCO[C@@H](CN(C)S(=O)(=O)c2cn(C)cn2)[C@@H](C)CN([C@@H](C)CO)C(=O)c2cc(NS(C)(=O)=O)ccc2O1	2.2	8.3	-0.7	i
C[C@@H]1CCCCO[C@H](CN(C)S(C)(=O)=O)[C@H](C)CN([C@@H](C)CO)C(=O)c2cc(NS(=O)(=O)c3ccc(Cl)cc3)ccc2O1	-0.8	-8.8	-0.9	i
COc1cccc(C(=O)Nc2ccc3c(c2)C(=O)N(C)[C@@H]2CC[C@H](CC(=O)NCCCN4CCOCC4)O[C@H]2CO3)c1	6.6	4.0	-2.4	i
COc1ccccc1C#Cc1ccc([C@H]2[C@H](CO)N3CCCCN(C(=O)C4CCC4)C[C@@H]23)cc1	-57.7	-80.2	-14.3	i
COc1ccc(NC(=O)Nc2ccc3c(c2)C(=O)N([C@@H](C)CO)C[C@@H](C)[C@H](CN(C)S(=O)(=O)c2cn(C)cn2)OCCCC[C@H](C)O3)cc1	-2.4	-0.3	0.2	i
C[C@H](CO)N1C[C@H](C)[C@H](CN(C)S(=O)(=O)c2ccc(F)cc2)Oc2ccc(NC(=O)CCCCCC(=O)Nc3ccccc3N)cc2CC1=O	0.0	4.0	0.7	i
Cc1ccccc1S(=O)(=O)N1C[C@H](O)COC[C@H]2O[C@@H](CC(=O)NCCc3ccccc3)CC[C@@H]21	-5.3	-5.0	0.7	i
COc1cccc(C#Cc2cnc3c(c2)C(=O)N([C@@H](C)CO)C[C@H](C)[C@@H](CN(C)C)O3)c1	4.9	24.7	-0.9	i
COc1cccc(CN2C[C@@H](C)[C@H](OC)CN(C)C(=O)c3cc(NS(=O)(=O)c4cn(C)cn4)ccc3OC[C@H]2C)c1	-0.5	-3.1	0.5	i
COc1ccc2c3c([nH]c2c1)[C@@H](CO)N(C(C)=O)CC31CN(Cc2cc(-c3ccccc3)on2)C1	-5.3	-23.2	16.6	i
Cc1noc(C)c1S(=O)(=O)Nc1ccc2c(c1)C(=O)N([C@H](C)CO)C[C@@H](C)[C@@H](CN(C)C(=O)CCC(F)(F)F)OCCCC[C@H](C)O2	1.5	0.7	0.3	i

Screening data deposited in PubChem BioAssay by Broad Institute.
